KCNQ2 pot: potentiators of rat KCNQ2 potassium channel | B-score at 10 µM | 310,000 tested, 0.54% active | AID 2239 | CHO-K1 KCNQ2, FluxOR thallium flux fluorescence; stronger effect = higher value;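 active = fluorescence ratio B-score at least 3 SD of library B-scores, with initial fluorescence B-score within 3 SD, cut at about 5.3 in these data; same plate scores as AID 2156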;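 also: B-score of peak minus minimum over baseline fluorescence ratio after K+ and Tl+ stimulus; positive B-score means potentiation of KCNQ2 with more thallium influx and brighter signal; only the inactives scoring about 0 or higher are listed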
Target sequence (O88943 whole entry, looked up): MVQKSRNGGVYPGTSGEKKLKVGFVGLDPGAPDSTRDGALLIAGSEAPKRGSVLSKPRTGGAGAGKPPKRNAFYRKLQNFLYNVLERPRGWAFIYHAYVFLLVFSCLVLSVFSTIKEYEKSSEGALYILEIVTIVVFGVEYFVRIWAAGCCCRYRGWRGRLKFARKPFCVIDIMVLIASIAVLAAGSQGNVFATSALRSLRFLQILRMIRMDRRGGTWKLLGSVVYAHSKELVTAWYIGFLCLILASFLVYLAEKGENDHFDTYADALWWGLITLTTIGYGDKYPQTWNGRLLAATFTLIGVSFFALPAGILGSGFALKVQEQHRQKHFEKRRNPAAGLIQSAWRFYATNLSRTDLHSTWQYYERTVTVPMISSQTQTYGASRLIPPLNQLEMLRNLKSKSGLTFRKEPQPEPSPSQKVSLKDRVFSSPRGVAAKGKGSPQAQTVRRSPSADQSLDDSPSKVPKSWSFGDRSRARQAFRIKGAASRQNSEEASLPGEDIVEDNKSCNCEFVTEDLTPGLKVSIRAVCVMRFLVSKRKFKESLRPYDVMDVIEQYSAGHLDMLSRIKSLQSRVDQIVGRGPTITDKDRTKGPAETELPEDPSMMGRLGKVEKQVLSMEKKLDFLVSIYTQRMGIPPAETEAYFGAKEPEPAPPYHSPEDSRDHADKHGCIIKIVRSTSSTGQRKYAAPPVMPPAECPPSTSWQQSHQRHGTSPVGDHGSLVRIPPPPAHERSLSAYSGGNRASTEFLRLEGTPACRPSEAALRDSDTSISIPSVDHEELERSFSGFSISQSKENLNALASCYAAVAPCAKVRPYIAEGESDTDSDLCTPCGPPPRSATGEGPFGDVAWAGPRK
KCNQ2 pot baseline: also measured in KCNQ2 pot; calls as there; B-score; compound at 10 µM; measured here: initial fluorescence intensity artifact check;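 brightness before thallium and not channel activity; 0 = typical well and far values either way flag optical interference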
The depositor's hits bear a star; & = joins results of further samples. Some of the compounds tested; the hit share may differ from the screen's.

Preview (2 entries):
Results follow in this order: KCNQ2 pot baseline | KCNQ2 pot
> COc1cc(C)ccc1OCc1cc(C(=O)N2CCN(C)C[C@@H]2c2ccccc2)no1
 : -0.08 | 0.05
> NNC(=O)C1CCCn2c1nc1sc3c(c1c2=O)CCCC3 (stereo unspecified)
 : -1.1 | 0.17

Main list (from the top)
Results follow in this order: KCNQ2 pot baseline | KCNQ2 pot
> COc1cc(C)ccc1OCc1cc(C(=O)N2CCN(C)C[C@@H]2c2ccccc2)no1
 : -0.08 | 0.05
> NNC(=O)C1CCCn2c1nc1sc3c(c1c2=O)CCCC3 (stereo unspecified)
 : -1.1 | 0.17
> CC(c1ccco1)N(C(=O)c1ccccc1F)c1ccccn1 (stereo unspecified)
 : 0.63 | 0.26
> Fc1ccc(CNCc2ccccc2C(F)(F)F)cc1
 : 0.01 | 0.49
> Cc1ccc(OCCn2cc(C=O)c3ccccc32)cc1
 : -0.41 | 2.1
> CCCN[C@H]1CCc2nc(N)sc2C1
 : 0.25&1.5 | 0.75&0.59
> C/C=C/c1ccc(OC)c(OC(C)=O)c1
 : 0.02 | 1
> NNC(=O)c1cc(-c2ccco2)[nH]n1
 : -0.07 | 0.05
> CC(=O)c1cccc(NS(=O)(=O)c2ccc(N/C=C\C(=O)c3ccc(C)cc3)cc2)c1
 : -1.4 | 0.21
> O=S(=O)(NC(=S)c1ccccc1)c1ccc(Cl)cc1
 : -0.63 | 0.02
> Cc1nn(-c2ccc(F)cc2)c2sc(C(=O)OCC(=O)N3CCC(C)CC3)cc12
 : -1.9 | 1.7
> O=C(N/N=C/c1ccc(O)cc1O)C1CC1
 : -0.02 | 0.02
> CCN(CCCNC(=O)CCNC(=O)Cn1cnc2ccccc2c1=O)c1cccc(C)c1
 : -2.3 | 0.55
> CCn1c(SCC(=O)NCC2CCCO2)nc2c([nH]c3ccccc32)c1=O (stereo unspecified)
 : -0.15 | 0.38
> CCc1ccccc1NC(=O)Cn1c(=O)n(-c2ccc(CC(=O)NCC3CCCO3)cc2)c(=O)c2ccccc21 (stereo unspecified)
 : 0.8 | 0.07
> CC(C)c1ccc(NC(=O)c2ccc(Br)o2)cc1
 : 0.28 | 1.6
> COc1cc(C(=O)/C=C/c2cccnc2)c([N+](=O)[O-])cc1OC
 : -0.22 | 0.49
> N#Cc1ccccc1CSC1=NCCS1
 : -1.2 | 0.03
> CC(OC(=O)CNC(=O)C12CC3CC(CC(C3)C1)C2)C(=O)Nc1ccc(N2CCOCC2)cc1 (stereo unspecified)
 : 1.2 | 2
> CC(C)CC(NC(=O)C(NC(=O)OC(C)(C)C)C(C)C)C(=O)NC(CCC(=O)OCc1ccccc1)C(N)=O (stereo unspecified)
 : 1.1 | 1.1
> Cc1cc(SCC(=O)OCC(=O)N(CCC#N)c2ccccc2)nc2ccccc12
 : 1.2 | 0.04
> Cc1[nH]nc(SCC(=O)N(C)c2ccccc2)c1[N+](=O)[O-]
 : -0.88 | 0.04
> O=C(COc1ccc(C(=O)c2ccccc2)cc1)NC1CCCCC1
 : -0.26 | 2.3
> COc1ccc(-c2nnc(SC(C)C(=O)Nc3nccs3)n2-c2ccccc2)cc1OC (stereo unspecified)
 : -0.77 | 1.2
> Cc1ccc(NC(=O)CNc2ccc(Cl)c(Cl)c2)cc1S(=O)(=O)N(C)C
 : -0.49 | 0.1
> CSc1ccccc1NC(=O)Nc1ccccc1
 : -0.62 | 0.47
> Cc1c(C(=O)N(C)Cc2ccccc2)oc2ccc(S(=O)(=O)N3CCCC3)cc12
 : -0.73 | 0.76
> COc1cccc(NC(=O)C(C)Oc2ccccc2)c1 (stereo unspecified)
 : 0.27 | 0.3
> COc1cccc(C2NC(=S)NC(C)=C2C(=O)c2ccccc2)c1OC (stereo unspecified)
 : -1.2 | 0.4
> CC(=O)c1ccc(NS(=O)(=O)c2cc3c(cc2C)N(C)CCO3)cc1
 : 0.45 | 0.47
> COc1ccc(C(=O)NCCn2cc(SCC(N)=O)c3ccccc32)cc1
 : 0.27 | 0.09
> COC(=O)c1[nH]c2c(c1C)C(=O)CC(c1cc(OC)c(OC)c(OC)c1)C2 (stereo unspecified)
 : -1.4 | 2.2
> O=C(COC(=O)Cc1cccs1)Nc1ccccc1Cl
 : 0.95 | 2.5
> CC(=O)Oc1cc2oc(=O)cc(C)c2cc1Cl
 : 0 | 0.41
> CN(C(=O)COC(=O)c1cc(S(=O)(=O)N2CCOCC2)ccc1F)C1CCS(=O)(=O)C1 (stereo unspecified)
 : -0.72 | 1.6
> CC(C)(C)c1ccc(OCC(=O)NN2Cc3ccccc3C2=N)cc1
 : 0.6 | 1.2
> COc1cccc(NS(=O)(=O)c2cc(C)ccc2OC)c1
 : 0.31 | 0.79
> Cc1ccc(NS(=O)(=O)c2ccc3c(c2)NC(=O)CO3)cc1
 : 0.33 | 0.3
> O=C(O)c1ccc(COc2c(F)c(F)c(F)c(F)c2F)o1
 : -1.9 | 0.84
> CCc1noc(C)c1C(=O)N1CCN(S(=O)(=O)c2ccc(Cl)s2)CC1
 : -1.4 | 2.6
> COc1ccc(OC)c(Cc2nnc(CCC(=O)NCc3nc4ccccc4s3)o2)c1
 : -0.02 | 1.2
> C=CCN(c1ccccc1OC)S(=O)(=O)c1cccc(C(=O)OCC(=O)c2c[nH]c3ccccc23)c1
 : -0.16* | 6.7*
> COc1cc2c(cc1OC)CN(C(=O)C(C)(C)C)CC2
 : -0.01 | 0.61
> O=C(CCS(=O)(=O)c1ccccc1)Nc1nc2cc3c(cc2s1)OCO3
 : -0.32 | 3.4
> Cc1ccc(NCc2nnc(SCC(=O)c3ccc4c(c3)OCCO4)o2)c(C)c1
 : -0.2 | 0.01
> Cc1ccc(-c2noc(C3CCCN(C(=O)c4cccc(Cl)c4)C3)n2)o1 (stereo unspecified)
 : 1.2 | 0.06
> Cc1cccc(-n2ccnc2SCC(=O)O)c1C
 : -0.12 | 1.5
> CN(C)CCN1C(=O)C(O)=C(C(=O)c2cc3ccccc3o2)C1c1cccc(Br)c1 (stereo unspecified)
 : 0.69 | 0.02
> CCCC(=O)N(CCN1CCOCC1)c1nc2c(OC)ccc(OC)c2s1
 : -1.1 | 0.49
> CCCNC(=O)c1ccc(SC)cc1OC
 : 0.46 | 0.15

Further compounds
Results follow in this order: KCNQ2 pot baseline | KCNQ2 pot
> COc1ccc[nH]c1=O
 : 0.34 | 0.93
> CC(C)CC(=O)Nc1ccc(Cc2ccncc2)cc1
 : -1.8 | 0.19
> COC(=O)CC(NC(=O)c1ccc(C)cc1)c1ccc2c(c1)OCO2 (stereo unspecified)
 : 0.59 | 0.23
> CCOC(=O)C(Cc1c[nH]c2ccccc12)NC(=O)CNC(C)=O (stereo unspecified)
 : 0.14 | 0.98
> Fc1ccc(NC(=S)NCc2cccs2)cc1
 : -0.6 | 0.39
> CCOC(=O)c1[nH]nc(-c2cc(CC)c(O)cc2O)c1-c1cscn1
 : 0.13 | 3
> COc1ccc2[nH]c(=O)c(-c3nnn(-c4ccccc4)n3)cc2c1
 : 0.05 | 0.96
> Cc1c(/C=N/NC(=O)c2sc3ccccc3c2Cl)cnn1C
 : 1.2 | 0.93
> COc1ccc(/C=C(\C#N)C(=O)C(C)(C)n2cncn2)cc1
 : -0.58 | 0.1
> CCOC(=O)N1C(=O)c2cc(OC)ccc2S1(=O)=O
 : -0.34 | 0.04
> Cc1cccc(NC(=O)c2cnccn2)c1
 : -0.3 | 0.71
> O=C(C1CCCN(S(=O)(=O)c2cccc3nsnc23)C1)N1CCN(c2ccccn2)CC1 (stereo unspecified)
 : 0.64 | 0.24
> COc1ccc(NC(=O)c2cccc(N3C(=O)C4C5C=CC(C6CC56)C4C3=O)c2)cc1 (stereo unspecified)
 : -0.02 | 0.97
> C(=N\Nc1nc(N2CCOCC2)nc(N2CCOCC2)n1)/c1cccnc1
 : -2.7 | 0.7
> Cc1nc2nc(C)c(CCC(=O)NC3CCCCC3)c(C)n2n1
 : -0.3 | 1.1
> CCc1nc(N)nc(N)c1-c1ccc(Cl)cc1
 : 0.88 | 0.56
> CC(=O)c1ccc(NC(=O)Nc2sc(NS(=O)(=O)c3ccccc3)nc2C)cc1
 : 0.27 | 0.16
> CCN(CC)C(=O)c1cn(CCC#N)nc1-c1ccc2ccccc2c1
 : -0.86 | 1.1
> COc1ccc(C(=O)CSc2nnc(-c3cc(C)on3)o2)cc1
 : 0.46 | 0.5
> O=C(CCC(=O)N1CCOc2ccccc21)Nc1cc(F)ccc1F
 : 0.66 | 1.1
> O=C(Cn1[nH]c(=O)c2ccccc2c1=O)NNC(=O)c1ccccc1
 : -0.7 | 0.67
> CCS(=O)(=O)NCCc1csc(-c2cccnc2)n1
 : -0.17 | 0.01
> O=C(NC(=S)Nc1ccc(F)cc1)C1CCCCC1
 : -0.26 | 0.4
> Cc1cc(=O)oc2cc(OCC(=O)OCC(=O)Nc3ccc(C(C)C)cc3)ccc12
 : 0.05 | 1.2
> c1ccc2oc(-c3ccc(Nc4nc(N5CCCC5)nc(N5CCOCC5)n4)cc3)nc2c1
 : 0.28 | 3
> Cc1ccc(CSCC(=O)N(CCC(C)C)c2c(N)n(Cc3ccccc3)c(=O)[nH]c2=O)cc1
 : 1 | 0.8
> CCOC(=O)C1CCN(Cc2ccc(O)c(OC)c2)CC1
 : 0.03 | 0.04
> Cc1ccc(C(C(=O)NCC2CCCO2)N(C(=O)c2snc(C(N)=O)c2N)c2ccccc2F)o1 (stereo unspecified)
 : -0.15 | 0.07
> CCOC(=O)CSc1nc2ccccc2c(=O)n1CC1CCCO1 (stereo unspecified)
 : 0.48 | 0.19
> O=C1Nc2ccccc2N(O)N1c1ccc(S(=O)(=O)N2CCOCC2)cc1
 : -1.4 | 0.56
> CCC(=O)c1ccc(OCC(=O)O)c(OC)c1
 : -0.63 | 0.77
> CCOC(=O)C1=C(CN2CCN(C(=O)c3ccco3)CC2)NC(=O)NC1c1ccc(OC(C)C)cc1 (stereo unspecified)
 : -0.88 | 0.89
> O=[N+]([O-])c1ncccc1Oc1nc(-c2cccnc2)nc2ccccc12
 : 0.11 | 1.4
> O=C(Cn1cnnn1)Nc1cccc([N+](=O)[O-])c1
 : -0.18 | 0.84
> CS(=O)(=O)c1ccc2nc(NC(=O)C3CC(=O)N(c4ccc(F)cc4)C3)sc2c1 (stereo unspecified)
 : -0.09 | 0.36
> CCOC(=O)c1sc2nc(CC(=O)OC)nc(NCc3ccc(Cl)cc3)c2c1C
 : 0.21 | 0.13
> OCc1ccnc2oc3ccccc3c12
 : -1.4 | 0.4
> Cn1ccs/c1=N\S(=O)(=O)c1ccc(F)cc1
 : -0.02 | 1.7
> C=CCSc1nc2c(c(=O)[nH]c(=O)n2C)n1Cc1ccccc1
 : -0.79 | 0.76
> Cc1ccc(-c2csc3n[nH]c(=S)n23)cc1
 : 0.59 | 1

Profiles as entered above. Screens in order: KCNQ2 pot baseline | KCNQ2 pot
`CS(=O)(=O)c1ccc2nc(NC(=O)C3CC(=O)N(c4ccc(F)cc4)C3)sc2c1` (stereo unspecified) reads -0.09 | 0.36
`Cc1ccc(-c2csc3n[nH]c(=S)n23)cc1` reads 0.59 | 1
`Cn1ccs/c1=N\S(=O)(=O)c1ccc(F)cc1` reads -0.02 | 1.7
`CCOC(=O)C1=C(CN2CCN(C(=O)c3ccco3)CC2)NC(=O)NC1c1ccc(OC(C)C)cc1` (stereo unspecified) reads -0.88 | 0.89
`O=[N+]([O-])c1ncccc1Oc1nc(-c2cccnc2)nc2ccccc12` reads 0.11 | 1.4

New compounds follow.
Results follow in this order: KCNQ2 pot baseline | KCNQ2 pot
> O=C(O)CCC(=O)Nc1cccc(-c2csc(-c3ccccc3)n2)c1
 : 1.5 | 0.34
> CC(C)CCn1nc(C(=O)OC(C)C(=O)NC(N)=O)c2ccccc2c1=O (stereo unspecified)
 : -1.8 | 0.24
> COCCNC(=O)C(c1c[nH]c2ccccc12)N(C(=O)c1snc(C(N)=O)c1N)c1cccc(OC)c1 (stereo unspecified)
 : 0.35 | 0.4
> Cc1c(NC(=O)CN(c2ccc(F)cc2)S(=O)(=O)c2ccccc2)c(=O)n(-c2ccccc2)n1C
 : -0.61 | 0.62
> CCOc1ccc(CCNc2nc3ccccc3n3cnnc23)cc1OCC
 : -0.13 | 0.73
> CNc1oc(-c2cccs2)nc1C#N
 : -1.5 | 1.1
> O=C(CCCCn1c(=O)c2ccccc2n(CC(=O)NC2CCCC2)c1=O)NCc1ccco1
 : 1.9 | 0.06
> O=c1cc(CN2CCN(c3ccccc3F)CC2)c2cc(O)c(-c3ccccc3)cc2o1
 : 1.2 | 0.06
> CC(Oc1ccccc1F)C(=O)NNC(=O)CC(C)c1ccccc1 (stereo unspecified)
 : 0.41 | 1.6
> COc1ccc(N(CC(=O)NCCSCc2ccco2)S(=O)(=O)c2ccc(C)cc2)cc1
 : 0.62 | 0.2
> CCOc1cc(C(=O)NC(=S)Nc2nc(C)cc(C)n2)cc(OCC)c1OCC
 : -1.2 | 0.34
> O=C(COC(=O)c1cc([N+](=O)[O-])ccc1NCCO)c1ccccc1
 : 0.16 | 0.09
> CCCn1c(=N)n(CC(O)COc2ccc(C)cc2)c2ccccc21 (stereo unspecified)
 : -1.2 | 1.5
> COc1ccc(/C(N)=N/OC(=O)c2ccc(C)c([N+](=O)[O-])c2)cc1
 : -0.16 | 0.79
> COc1cc(OC)cc(C(=O)NCC(=O)Nc2ccc(C)c(Cl)c2)c1
 : 0.08 | 0.88
> O=C(O)CCC(=O)N1N=C(c2ccccc2)CC1c1cccs1 (stereo unspecified)
 : -2.6 | 0.11
> Brc1cccc(-c2nc(-c3ccncc3)no2)c1
 : -0.46 | 1.6
> COc1ccc(NC(=O)CN(C)C(=O)CCNS(=O)(=O)c2ccc(Br)cc2)cc1
 : -0.92 | 1.6
> COCCNC(=O)C(=O)NNS(=O)(=O)c1ccc2ccccc2c1
 : 0.19 | 0.18
> CCN1CCN(CC(=O)Nc2c(OC)cccc2OC)CC1
 : -1.1 | 0.12

Screening data from PubChem.
